# Source: PubChem BioAssay
# PrP 5UTR inh: suppresses PrP 5' UTR mRNA reporter expression. cell-based PrP 5' UTR mRNA reporter, plate reader. inhibition, % (concentration not given with the values). AID 488862. 340,000 tested, 0.35% active;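 active = every replicate at 50% or more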;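 note: 0 = median of the neutral control wells; tested in H4 reporter cells; numbers are from one replicate; inactives centre near -14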
# Autofluor counter: compound fluorescence in toxin protease inhibitor counterscreen | compound autofluorescence counterscreen, microsphere flow cytometry; active compounds read high | fluorescence intensity (test concentration not listed) | 360,000 tested, 3.1% active;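 active = at least 3 SD above the mean of all compounds, about 16000 in these data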;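 note: 100 nL of 1 mM stock went into each well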
# BJeLR lethal: BJeLR cell viability loss; 300,000 tested, 0.17% active; BJeLR (HRASV12) viability, CellTiter-Glo ATP luminescence, 48 h; reference of the scale not given here; inhibition, % (no concentration beside the values);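 active = replicate mean above 50%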;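 note: 50 nL library stock added to about 25 µL; numbers are from one replicate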
# Sa RN4220 lethal: S. aureus RN4220 growth inhibition. OD600, 16 h. AID 1259311. inhibition, % (concentration not given with the values). 330,000 tested, 0.33% active;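 active = z-score of -3 or lower and OD600 up to 0.18 on both plates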;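 note: plate controls were untreated cells for no effect and reference antibiotic for full effect; stock transfer was 100 nL into about 80 µL; one replicate is shown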
# Mtb hypoxia inh: Mtb hypoxia fluorescent reporter inhibition; M. tuberculosis hypoxia-regulated fluorescent reporter, fluorescence; fluorescence inhibition, % (test concentration not listed); 300,000 tested, 0.1% active; AID 1159583;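 active = 35 to 45% if threefold the growth effect, above 45% if 1.5-fold the growth effect; inactive = the rest, general growth blockers included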;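 note: wells of about 50 µL received 100 nL stock; 0% = vehicle wells and 100% = reference inhibitor wells; whole bacteria with a GFP reporter of the hypoxia response; strong numbers were not always called active; many hits fall short of the cut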
# ugtP null kill: compounds lethal to S. aureus RN4220 ugtP deletion mutant | OD600 growth, 16 h; some inactives read as strong as hits | growth inhibition, % (test concentration not listed) | 330,000 tested, 0.54% active | AID 1259309;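 active = z-score under -3 and OD600 up to 0.15 on both plates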;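 note: plate controls were untreated wells for no effect and antibiotic for full effect; wells of about 80 µL received 100 nL stock; the first replicate is given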
# Mtb hypoxia inh growth: second read-out of Mtb hypoxia inh, no call of its own (marks repeat the call); growth inhibition, %; measured here: M. tuberculosis growth (absorbance);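 0% = vehicle and 100% = reference antibiotic; read after six days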
# Starred values were filed as active, the others as inactive; nt = not tested or not shown; & = joins results of further samples.
# Codes: A = PrP 5UTR inh; B = Autofluor counter; C = BJeLR lethal; D = Sa RN4220 lethal; E = Mtb hypoxia inh; F = Mtb hypoxia inh growth; G = ugtP null kill
CCOC(=O)[C@H](CCc1ccccc1)N[C@@H](C)C(=O)N1Cc2ccccc2C[C@H]1C(=O)O
  A: -13; B: 5319; C: -6; D: nt; E: nt; F: nt; G: nt
CCC1C(=O)OCC1Cc1cncn1C (stereo not drawn)
  A: nt; B: nt; C: nt; D: 2.0; E: -2; F: -3; G: -8
CCCCNc1ccc(C(=O)OCCN(C)C)cc1
  A: 6; B: 4373; C: -3; D: 3.3; E: 12; F: 13; G: 6
COc1ccc(C2CNC(=O)C2)cc1OC1CCCC1 (stereo not drawn)
  A: 11; B: 6096; C: 10; D: 2.3; E: -1; F: 1; G: 4
CCN(CC)CCOC(=O)c1ccc(N)cc1
  A: -14; B: 4061; C: 1; D: 1.9; E: -2; F: 13; G: -4
COc1ccccc1N1CCN(CCCN=C2CC(=O)N(C)C(=O)N2C)CC1
  A: -8; B: 5532; C: nt; D: 5.6; E: 1; F: 3; G: 5
C=CC[n+]1ccc(/C=C2\C=Cc3cc(C)ccc3N2CC)c2ccccc21
  A: 2; B: 2891; C: nt; D: 92*; E: 36*; F: 22*; G: 93*
CCCc1nc(C(C)(C)O)c(C(=O)O)n1Cc1ccc(-c2ccccc2-c2nn[nH]n2)cc1
  A: nt; B: nt; C: 2; D: 4.5; E: -2; F: 2; G: 2
C/C=C(/C)C(=O)OC(C)(C)[C@@H]1Cc2c(ccc3ccc(=O)oc23)O1
  A: -50; B: 4369; C: -1; D: nt; E: nt; F: nt; G: nt
CC1Cc2ccccc2N1NC(=O)c1ccc(Cl)c(S(N)(=O)=O)c1 (stereo not drawn)
  A: -20; B: 7009; C: -6; D: 3.2; E: 3; F: 0; G: -1

# Arranged by molar mass (ascending): some entries from above
# Codes: A = PrP 5UTR inh; B = Autofluor counter; C = BJeLR lethal; D = Sa RN4220 lethal; E = Mtb hypoxia inh; F = Mtb hypoxia inh growth; G = ugtP null kill
CCC1C(=O)OCC1Cc1cncn1C (stereo not drawn)
  A: nt; B: nt; C: nt; D: 2.0; E: -2; F: -3; G: -8
CCCCNc1ccc(C(=O)OCCN(C)C)cc1
  A: 6; B: 4373; C: -3; D: 3.3; E: 12; F: 13; G: 6
COc1ccccc1N1CCN(CCCN=C2CC(=O)N(C)C(=O)N2C)CC1
  A: -8; B: 5532; C: nt; D: 5.6; E: 1; F: 3; G: 5

# Additional structures.
# Codes: A = PrP 5UTR inh; B = Autofluor counter; C = BJeLR lethal; D = Sa RN4220 lethal; E = Mtb hypoxia inh; F = Mtb hypoxia inh growth; G = ugtP null kill
CC(C)=CCOc1c2ccoc2cc2oc(=O)ccc12
  A: 1; B: 5692; C: 4; D: 1.2; E: nt; F: nt; G: 2
Cc1cccc2c1NC(=O)C2(c1ccc(O)cc1)c1ccc(O)cc1
  A: -19; B: 2157; C: -2; D: nt; E: nt; F: nt; G: nt
CCC(NC(C)C)C(O)c1ccc(O)c2[nH]c(=O)ccc12 (stereo not drawn)
  A: 2; B: 4315; C: 5; D: nt; E: nt; F: nt; G: nt
Cc1cncn1CCc1nc2c3ccccc3nc(SCC(=O)Nc3cccc(Cl)c3)n2n1
  A: -6; B: 2699; C: 4; D: 2.0; E: 1; F: 7; G: 25
N#Cc1ccc(C(c2ccc(C#N)cc2)n2cncn2)cc1
  A: nt; B: 5927; C: -4; D: 5.1; E: 1; F: 5; G: -2
CC[C@@H]1C(=O)OC[C@@H]1Cc1cncn1C
  A: -3&-21; B: 5613&5809; C: 4&3; D: nt; E: nt; F: nt; G: nt
CN1CCCN=C1COC(=O)C(O)(c1ccccc1)C1CCCCC1 (stereo not drawn)
  A: -20; B: 6425; C: -6; D: nt; E: nt; F: nt; G: nt
CC(=O)Nc1ccc(CC(=O)O)cc1
  A: -5; B: 4179; C: -11; D: nt; E: nt; F: nt; G: nt
NOCC(=O)O
  A: -6; B: 6049; C: nt; D: 4.5; E: 6; F: 5; G: 0
CCCCNc1ccc(C(=O)OCCOCCOCCOCCOCCOCCOCCOCCOCCOC)cc1
  A: -10; B: 5461; C: nt; D: 11; E: 12; F: 8; G: -3

# 7 entries picked at random from the list so far, as already listed:
# Codes: A = PrP 5UTR inh; B = Autofluor counter; C = BJeLR lethal; D = Sa RN4220 lethal; E = Mtb hypoxia inh; F = Mtb hypoxia inh growth; G = ugtP null kill
CN1CCCN=C1COC(=O)C(O)(c1ccccc1)C1CCCCC1 (stereo not drawn)
  A: -20; B: 6425; C: -6; D: nt; E: nt; F: nt; G: nt
CC(C)=CCOc1c2ccoc2cc2oc(=O)ccc12
  A: 1; B: 5692; C: 4; D: 1.2; E: nt; F: nt; G: 2
N#Cc1ccc(C(c2ccc(C#N)cc2)n2cncn2)cc1
  A: nt; B: 5927; C: -4; D: 5.1; E: 1; F: 5; G: -2
CCC1C(=O)OCC1Cc1cncn1C (stereo not drawn)
  A: nt; B: nt; C: nt; D: 2.0; E: -2; F: -3; G: -8
CC(=O)Nc1ccc(CC(=O)O)cc1
  A: -5; B: 4179; C: -11; D: nt; E: nt; F: nt; G: nt
CCN(CC)CCOC(=O)c1ccc(N)cc1
  A: -14; B: 4061; C: 1; D: 1.9; E: -2; F: 13; G: -4
CCCCNc1ccc(C(=O)OCCOCCOCCOCCOCCOCCOCCOCCOCCOC)cc1
  A: -10; B: 5461; C: nt; D: 11; E: 12; F: 8; G: -3

# (more compounds)
# Codes: A = PrP 5UTR inh; B = Autofluor counter; C = BJeLR lethal; D = Sa RN4220 lethal; E = Mtb hypoxia inh; F = Mtb hypoxia inh growth; G = ugtP null kill
CC12CCC(=O)C=C1CCC1C2CCC2(C)C1CCC2(O)C(=O)CO (stereo not drawn)
  A: 48; B: 4220; C: 7; D: 5.9; E: -10; F: 2; G: -2
CC1(C)O[C@H]2CC(=O)OC[C@@]23C1CC(=O)[C@]1(C)C3CC[C@@]2(C)[C@H](c3ccoc3)OC(=O)[C@H]3O[C@]321 (stereo partly drawn)
  A: -2; B: 4826; C: nt; D: 3.7; E: nt; F: nt; G: 2
C1COC(NC(C2CC2)C2CC2)=N1
  A: -13; B: 5504; C: -12; D: 8.4; E: -2; F: 1; G: 1
C[N+]1(C)CCC(=C(c2ccccc2)c2ccccc2)CC1
  A: -12; B: 4092; C: nt; D: 0.2; E: 4; F: 0; G: 4
COc1cc(-c2oc3cc(O)cc(O)c3c(=O)c2OC2OC(COC3OC(C)C(O)C(O)C3O)C(O)C(O)C2O)ccc1O (stereo not drawn)
  A: nt; B: nt; C: nt; D: -2.6; E: 3; F: -2; G: -5
Cc1ccc(N(CC2=NCCN2)c2cccc(O)c2)cc1
  A: -4&-16&-27; B: 5464&6011&6247; C: -12&-2&-27; D: 4.7&0.3&8.2; E: 6&4&-2; F: -3&-1&0; G: -5&0&-4
CNCCCN1c2ccccc2CCc2ccccc21
  A: -20&-18; B: 5531; C: 1; D: -4.4; E: 12; F: -1; G: 5
CC(=O)OCC1=CC2OC(=O)C3=COC(OC4OC(CO)C(O)C(O)C4O)C1C32 (stereo not drawn)
  A: nt; B: nt; C: nt; D: 9.0; E: 13; F: 8; G: 1
COc1ccc(C[C@H]2COC(=O)[C@@H]2Cc2ccc(OC3OC(CO)C(O)C(O)C3O)c(OC)c2)cc1OC (stereo partly drawn)
  A: -19; B: 3953; C: 5; D: nt; E: nt; F: nt; G: nt
O=c1cc(-c2ccc(O)cc2)oc2cc(OC3OC(CO)C(O)C(O)C3OC3OC[C@](O)(CO)C3O)cc(O)c12 (stereo partly drawn)
  A: nt; B: nt; C: nt; D: 7.2; E: 12; F: 9; G: 1
Cc1ccc(=O)n(-c2ccccc2)c1
  A: -6; B: 5340; C: 1; D: 3.7; E: 0; F: 4; G: -6
COc1ccc(CC2COC(=O)C2Cc2ccc(OC3OC(CO)C(O)C(O)C3O)c(OC)c2)cc1OC (stereo not drawn)
  A: nt; B: nt; C: nt; D: 7.5; E: -1; F: 0; G: 7
CCc1ccc(CCOc2ccc(CC3SC(=O)NC3=O)cc2)nc1 (stereo not drawn)
  A: -12; B: 6400; C: -6; D: 8.0; E: 5; F: 8; G: -1
CC(=O)CCCCn1c(=O)c2c(ncn2C)n(C)c1=O
  A: -3&-20; B: 5941; C: 11; D: 6.9; E: -3; F: 0; G: 0
COC(=O)C1=CO[C@@H](O[C@@H]2O[C@H](CO)[C@@H](O)[C@H](O)[C@H]2O)C2C1C[C@H](O)[C@@H]2C (stereo partly drawn)
  A: -25; B: 2973; C: nt; D: -4.4; E: 3; F: -1; G: 4
O=C(O)c1cccnc1Nc1cccc(C(F)(F)F)c1
  A: -3; B: 5498; C: 3; D: 17; E: 0; F: 2; G: -20
NC1CCN(c2nc3c(cc2F)c(=O)c(C(=O)O)cn3-c2ccc(F)cc2F)C1 (stereo not drawn)
  A: -33; B: 5952; C: -10; D: 100*; E: nt; F: nt; G: 99*
CCCCCC(=O)O[C@]1(C(C)=O)CC[C@H]2[C@@H]3CCC4=CC(=O)CC[C@]4(C)[C@H]3CC[C@@]21C
  A: 3; B: 5996; C: 10; D: nt; E: nt; F: nt; G: nt

# This is a subset; the hit share may differ from the screen's.
